# ugtP null kill = growth inhibition of ugtP-null S. aureus, primary screen, RN4220 ugtP deletion, OD600; hit rate 0.54% among 330,000; growth inhibition, % (no concentration beside the values); 16 h; some inactives read as strong as hits;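 active means z-score under -3 and OD600 up to 0.15 on both plates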;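 further: plate controls were untreated wells for no effect and antibiotic for full effect; wells of about 80 µL received 100 nL stock; the first replicate is given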
# BJeLR viability = MLPCN primary cell-based screen for lethality selective to Ras in HRASV12 cells | BJeLR (HRASV12) viability, CellTiter-Glo ATP luminescence, 48 h; reference of the scale not given here | hit rate 0.17% among 300,000 | inhibition, % (no concentration beside the values);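 active means replicate mean above 50%; inconclusive means above 50% but judged a plate artefact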;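 further: 50 nL library stock added to about 25 µL; numbers are from one replicate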
# Autofluor counter = compound fluorescence in toxin protease inhibitor counterscreen | hit rate 3.1% among 360,000 | AID 624483 | compound autofluorescence counterscreen, microsphere flow cytometry; active compounds read high | fluorescence intensity (no concentration beside the values);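 active means at least 3 SD above the mean of all compounds, about 16000 in these data; inconclusive means too few beads counted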;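 further: 100 nL of 1 mM stock went into each well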
# Sa RN4220 lethal = growth inhibition of S. aureus RN4220, primary screen, OD600; 16 h; inhibition, % (no concentration beside the values); hit rate 0.33% among 330,000;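 active means z-score of -3 or lower and OD600 up to 0.18 on both plates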;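 further: plate controls were untreated cells for no effect and reference antibiotic for full effect; stock transfer was 100 nL into about 80 µL; one replicate is shown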
# PrP UTR inh = inhibition of PrP 5' UTR reporter expression; cell-based PrP 5' UTR mRNA reporter, plate reader; inhibition, % (concentration not given with the values); hit rate 0.35% among 340,000;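 active means every replicate at 50% or more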;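 further: 0 = median of the neutral control wells; tested in H4 reporter cells; numbers are from one replicate; inactives centre near -14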
# Mtb hypoxia inh = PubChem AID 1159583; fluorescence inhibition, % (concentration not given with the values); hit rate 0.1% among 300,000; M. tuberculosis hypoxia-regulated fluorescent reporter, fluorescence;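 active means 35 to 45% if threefold the growth effect, above 45% if 1.5-fold the growth effect; inactive means the rest, general growth blockers included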;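 further: wells of about 50 µL received 100 nL stock; 0% = vehicle wells and 100% = reference inhibitor wells; whole bacteria with a GFP reporter of the hypoxia response; strong numbers were not always called active; many hits fall short of the cut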
# Mtb hypoxia inh growth = further read-out of Mtb hypoxia inh, marked with its call; growth inhibition, %; measured here: M. tuberculosis growth (absorbance);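 0% = vehicle and 100% = reference antibiotic; read after six days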
# * hit, by the source's call; ? = inconclusive; / = not tested or not shown; & = joins results of further samples.
SMILES,ugtP null kill,BJeLR viability,Autofluor counter,Sa RN4220 lethal,PrP UTR inh,Mtb hypoxia inh,Mtb hypoxia inh growth
COc1cc(C=NNC(=O)C2C3CCCCC32C)cc(Br)c1O (stereo not drawn),-9,/,/,6.3,/,18,31
COc1ccc2nc(NC(=O)c3cc(C)oc3C)sc2c1,-7,21,?,-1.2,-53,7,7
CCOc1ccc(C(C)NC(=O)CN2C(=O)NC3(CCCCC3)C2=O)cc1OCC (stereo not drawn),-2,/,3726,3.9,-5,1,0
COC(=O)c1ccc(C2C(Oc3ccccc3C)C(=O)N2CCc2ccc(OC)c(OC)c2)cc1 (stereo not drawn),-5,-3,2785,-3.0,-9,6,8
CCc1nnc(NC(=O)CSc2nc(-c3ccccc3)cc(-c3ccc(OC)cc3)c2C#N)s1,-3,-7,2246,4.4,-21,6,-2
Cc1c(Cl)c([N+](=O)[O-])nn1CC(=O)NC(C)c1ccccc1 (stereo not drawn),3,22,4066,2.5,-49,7,7
COCCN1CCC(CNCc2c(C(=O)N3CCCCC3)nc3c(C)cccn23)C1 (stereo not drawn),5,11,4714,1.8,-10,0,2
CC1CCCN(C(=O)CCNS(=O)(=O)c2ccc3c(c2)c(=O)n(C)c(=O)n3C)C1 (stereo not drawn),15,11,4236,6.3,0,4,-4
CCOC(CNC(=O)c1ccc2c(c1)ncn2-c1cccc(F)c1)OCC,6,3,2049,1.7,-16,10,5
c1ccc2c(CC3CNCCN3CCC34CC5CC(CC(C5)C3)C4)cccc2c1 (stereo not drawn),3,/,/,6.4,/,7,4
CC(CC(=O)O)CC(=O)Nc1nncs1 (stereo not drawn),1,-7,4925,4.9,-25,7,4
CCN(c1ccccc1)S(=O)(=O)c1ccc(C(=O)Nc2nnc(C3CC3)o2)cc1,8,7,2521,32,-5,-7,5
O=S(=O)(NCCCCCNS(=O)(=O)c1ccc(F)cc1)c1ccc(F)cc1,9,5,4733,0.2,-7,/,/
COc1ccc2nc(NC(=O)C3CC(=O)N(c4ccccc4)C3)sc2c1 (stereo not drawn),7,-1,3885,-4.1,-22,13,13
O=C(O)Cn1ccc2cc(S(=O)(=O)N3CCCCCC3)ccc21,2,11,?,4.3,-10,5,1
CC1CCN(CC(CS(=O)(=O)c2ccc([N+](=O)[O-])cc2)N2CCC(C)CC2)CC1 (stereo not drawn),1,33,3502,13,-8,19,9
CC(C(=O)Nc1ccc(F)c(F)c1)N1CCN(C)CC1 (stereo not drawn),18,1,4226,5.0,-38,10,3
FC(F)(F)c1cccc(-c2noc(CN3CCOCC3)n2)c1,-6,-7,4736,-5.5,-13,1,9
O=C(c1cccc2c1C(=O)N(Cc1cccnc1)C2)N1CCN(c2ccccc2)CC1,-2,0,4417,-0.9,-7,/,/
O=S(=O)(c1ccccc1)N1CCN(S(=O)(=O)N2CCCCCC2)CC1,13,1,3884,2.8,-23,3,1
Cn1c(=O)c2c(nc(OCCc3ccccc3)n2C)n(C)c1=O,15,0,3559,4.9,4,9,-2
CCN(C(=O)c1cc2c(=O)n3ccccc3nc2n1CCCOC)C1CCCCC1,3,-2,4332,3.8,-6,1,-1
S=C(NCc1ccco1)NN=Cc1ccc(Cl)cc1,-5,/,/,12,/,12,3
Cc1ccc(S(=O)(=O)N2CCCOC2CNC(=O)C(=O)NCCN2CCOCC2)cc1 (stereo not drawn),6,-3,/,3.2,1,6,2
Cc1ccc(N2CC(C(=O)Nc3cccnc3)CC2=O)cc1Cl (stereo not drawn),8,-5,6104,-3.1,-22,2,2
O=C(NCC(=O)N1CCC(N2CCCCC2)CC1)C1CCCCC1,-8,4,6230,4.1,-18,2,13
Cc1ccc(C=NNC(=O)c2cccc(S(=O)(=O)Nc3ccccc3Cl)c2)o1,15,/,/,8.5,/,12,11
O=C(/C=C/NNC(=O)c1ccc(Br)cc1)c1ccccc1,/,-4,2759,/,-6,/,/
CC(CCc1ccccc1)NCCC#N (stereo not drawn),1,10,5881,1.5,-33,14,4
O=C(Oc1c(CN2CCOCC2)cc(Cl)c2cccnc12)c1ccccc1F,2,19,4541,6.1,11,6,-2

# Taken from above:
# Result of `CC(CC(=O)O)CC(=O)Nc1nncs1` (stereo not drawn) in Autofluor counter: 4925
# Result of `Cn1c(=O)c2c(nc(OCCc3ccccc3)n2C)n(C)c1=O` in BJeLR viability: 0
# Result of `CCOc1ccc(C(C)NC(=O)CN2C(=O)NC3(CCCCC3)C2=O)cc1OCC` (stereo not drawn) in Mtb hypoxia inh: 1

# Next structures follow.
SMILES,ugtP null kill,BJeLR viability,Autofluor counter,Sa RN4220 lethal,PrP UTR inh,Mtb hypoxia inh,Mtb hypoxia inh growth
C#CCOCCOCCOCCNc1nc(N2CCN(C(=O)C(CCCCN)n3cc(C(N)CC(C)C)nn3)CC2)nc(N2CCN(C(=O)C(CCCCN)n3cc(C(N)CC(C)C)nn3)CC2)n1 (stereo not drawn),0,/,/,6.4,/,14,10
Cc1nnc(SCC(=O)Nc2ccccc2C(=O)NC2CC2)s1,0,8,2013,1.3,2,5,6
CCCCNS(=O)(=O)c1ccc2nc(SCC(=O)c3ccccc3OC)[nH]c2c1,-32,-5,10562,2.6,-31,4,8
Cc1ccc(Cn2cnc3c(cnn3-c3ccc(F)cc3)c2=O)cc1,4,5,4157,2.0,-16,17,19
Cc1nc(N/N=C/c2ccc(O)cc2)c2cnn(-c3ccccc3)c2n1,/,6,4811,/,-1,/,/
CN(CCC#N)C(=O)COC(=O)/C=C/c1ccc2c(c1)OCO2,4,1,2743,2.3,-9,-1,-2
O=C(O)CC1(O)C(=O)N(Cc2ccccc2)c2ccccc21 (stereo not drawn),3,-4,2603,5.4,-30,2,1
CCOc1ccc(NS(=O)(=O)c2ccc(OCC(=O)NCCCOC)cc2)cc1,3,10,10498,1.0,-26,4,2
CCc1ccc(NC(=O)c2ccccc2NC(=O)C2CCCO2)cc1 (stereo not drawn),1,8,8555,-2.0,-164,-8,-4
O=C(CCCN1C(=O)c2ccccc2C1=O)Oc1ccc(Cl)cc1,-3,6,2143,-0.1,2,/,/
COc1ccc(-c2nnc(SCC(=O)NC3CCCCC3)o2)cc1OC,9,-4,4688,1.3,-14,/,/
NC(=O)C1(N2CCCCC2)CCN(CC(=O)Nc2ccccc2Sc2ccccc2)CC1,-2,4,8074,4.5,-12,11,6
Cc1ccc(-c2cc(C(=O)O)c3cc(Br)ccc3n2)s1,0,2&-8,3383&3508,18,-8&-16,3,15
NS(=O)(=O)c1ccc(N2CCOCC2)c(C(=O)NCc2cccs2)c1,9,/,2787,2.7,-9,6,6
C(=C\c1ccccc1)/C=N/Nc1nc2ccccc2s1,/,7,8402,/,-167,/,/
C=CCNc1nc2c(c(=O)n(C)c(=O)n2C)n1CC,-10,-5,6399,6.0,-17,-8,4
COc1ccc(/C=N/NC(=O)CN2CCSCC2)cc1C,/,-11,1965,/,-9,/,/
CC1CCN(C(=O)c2ccc3c(c2NCCO)C(=O)c2ccccc2C3=O)CC1,-8,9,2602,7.7,-31,/,/
CC1(C)CC(=NNc2ccc([N+](=O)[O-])cc2[N+](=O)[O-])C(C)(C)O1,12,/,/,3.0,/,-5,1
Cc1ccnc2nc(C(=O)OCC(=O)NCc3cccc(Cl)c3)nn12,-4,/,4013,5.7,-27,-2,6
Cc1cccc(C(=O)O/N=C2\CCS(=O)(=O)c3sccc32)c1,/,5,2458,/,-7,/,/
OCCNc1nc(N2CCCCC2)nc2ccccc12,2,1,3614,2.7,-8,-2,5
COc1cccc(NC(=O)COc2nc3ccccc3nc2C)c1,5,2,10262,1.3,-3,3,1
Cn1c(N2CCCC2)nc2c1c(=O)n(Cc1cccc(F)c1)c(=O)n2C,0,0,5712,-1.7,-26,-5,12
Cc1nc2c(C)cccn2c(=O)c1NC(=O)c1ccco1,4,6,4861,-0.1,-7,-6,-10
COc1ccc(-c2n[nH]c(=S)n2-c2ccc(Br)cc2)cc1OC,9,-8,4210,7.7,2,18,7
Cc1ccccc1S(=O)(=O)Cc1ccc(C(=O)NC2CCC(C)CC2)o1 (stereo not drawn),4,-7,5202,0.2,-11,10,10
CC(C)n1nnnc1SCC(=O)Nc1ccc2c(c1)OCCO2,3,2,/,1.6,/,3,10
CCCCC(=O)NC(=S)Nc1cccc(NC(=O)c2ccccc2)c1,64,3,3313,8.1,0,3,-4
COc1ccccc1-c1nnc(NC(=O)c2ccc3c(c2)OCO3)s1,1,9,4465,3.6,-60,3,3
O=C(C(Cc1ccccc1)n1cccc1)N1CCN(c2ccccc2)CC1 (stereo not drawn),-3,0,5791,-8.3,-14,4,7
COCCOC(=O)C1=C(C)N=C2SCCC(=O)N2C1c1cccc(Br)c1 (stereo not drawn),-2,9,17065*,-0.1,-4,14,3
CC(C)OC(=O)C1CC=CCC1C(=O)Nc1ccc(Cl)cc1 (stereo not drawn),6,7,4331,-1.2,3,/,/
COCCn1nnnc1C(CC(C)C)N1CCN(c2nc3ccccc3s2)CC1 (stereo not drawn),5,-11,5008,1.3,-2,4,-1
O=C(COC(=O)Cc1ccc([N+](=O)[O-])cc1)NC1CCCCCC1,-1,/,3949,-1.1,-20,21,11
COc1ccc(NC(=O)NCCN2CCCCC2)cc1,5,-6,3334,1.9,-13,2,2
CC(=O)N1c2ccc(S(=O)(=O)N3CCC(C(=O)N4CC(C)CC(C)C4)CC3)cc2CC1C (stereo not drawn),12,-9,4694,7.0,-1,-2,-10
COc1ccc(C=O)cc1Cn1ccnc1C,-7,-3,4955,2.8,-8,-14,-6
Cc1ccc(C(=O)N(C)Cc2nc3ccccc3c(=O)[nH]2)cc1NC(=O)c1ccco1,8,/,3017,3.8,13,6,6
O=C(CSc1nnnn1-c1ccc(F)cc1)Nc1ccc(N2CCOCC2)c(Cl)c1,3,5,10282,-2.3,-12,4,8
Cc1ccc(C=NNC(=O)CN2CCN(Cc3ccccc3Cl)CC2)o1,5,/,/,3.2,/,11,15
N#CC1=C(N)SC(N)=C(C#N)C1c1c(Cl)cccc1Cl,-4,-1,2470,12,-10,/,/
Cc1nc(C)c(C(=O)Nc2ncc([N+](=O)[O-])s2)o1,13,22,3358,11,32,16,15
Cc1ccc(S(=O)(=O)/N=C(/Nc2ccccn2)c2ccc(Cl)cc2)cc1,-5,2,2840,-9.0,-30,10,14
COCCn1c(SCC(=O)Nc2cc(C(C)(C)C)nn2-c2ccccc2)nnc1-c1ccncc1,-10,5,1938,2.7,-9,-3,-2
Cc1ccn2c(NC3CCCC3)c(-c3ccncc3)nc2c1,5,-7,4060,6.2,-15,3,2
O=C(NC1CCN(Cc2ccccc2)CC1)c1ccc(Cl)cc1Cl,4,8,4416,-2.1,-14,14,6
CC(NC(=O)C1(S(=O)(=O)c2ccc(Cl)cc2)CC1)c1ccccc1 (stereo not drawn),1,1,2096,3.5,-11,13,2
COc1ccc(NC(=O)CN(C)S(=O)(=O)c2ccc3c(c2)CC(C)N3C(C)=O)cc1OC (stereo not drawn),4,-9,4826,1.1,-8,5,5
CC(=O)c1ccccc1OCCOCCOc1ccccc1C(C)=O,17,0,9872,3.3,-42,15,4
CCCC(=O)N(Cc1cccnc1)c1nc2c(OC)ccc(Cl)c2s1,-5,-1,4957,-0.6,-4,0,3
O=C(Cc1ccccc1)Nc1ccc2[nH]ncc2c1,5,0,3884,1.5,-19,3,0
Cc1ccc(NC(=S)NN2CCOCC2)c(C)c1,1,-6,3356,-16,-13,13,3
Cc1nc(SCC(=O)NC2CCCC2)[nH]c(=O)c1C,8,-16,5305,1.7,-6,-1,14
CN(C(=O)COC(=O)c1cccc(Cl)c1)C1CCS(=O)(=O)C1 (stereo not drawn),-2,/,6107,-2.3,-16,-3,0
Cc1nn(-c2ccccc2)c(OC(=O)c2cccs2)c1S(=O)(=O)c1ccccc1,-7,-2,2311,5.1,-18,/,/

# 5 compounds from above, reduced to BJeLR viability and ugtP null kill.
SMILES	BJeLR viability	ugtP null kill
O=C(NC1CCN(Cc2ccccc2)CC1)c1ccc(Cl)cc1Cl	8	4
CC(NC(=O)C1(S(=O)(=O)c2ccc(Cl)cc2)CC1)c1ccccc1 (stereo not drawn)	1	1
COc1ccc(NC(=O)CN(C)S(=O)(=O)c2ccc3c(c2)CC(C)N3C(C)=O)cc1OC (stereo not drawn)	-9	4
CC(=O)c1ccccc1OCCOCCOc1ccccc1C(C)=O	0	17
CCCC(=O)N(Cc1cccnc1)c1nc2c(OC)ccc(Cl)c2s1	-1	-5

# Assay outcomes deposited in PubChem by several laboratories.
